miR-21 reporter: qHTS Assay for Modulators of miRNAs and/orActivators of miR-21. HeLa miR-21 FLuc reporter, luciferase, 48 h. Potency, µM (highest dose often 38.3 µM), inactives show at the top dose reporter change, positive = more light. 340,000 tested, under 10 active. AID 2288, 2010; active = well fitted rising curve with a large enough effect; inconclusive = small, poorly fitted or top-dose-only effect; inactive = no such curve, though single readings can be large or run the other way;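 further: % of control where 0% means no effect; miR-21 action dims this reporter so a rising signal means less miR-21 action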
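HeLa cells stably expressing CMV-driven firefly luciferase with a downstream miR-21 binding sequence, endogenously expressing miR-21, were treated with titrations (up to about 40uM final) for 48 hours at 37 degree Celsius. Luciferase luminescence was read after lysis.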
Rango-impB inh: qHTS Assay for Inhibitors of Rango (Ran-regulated importin-beta cargo) - Importin beta complex formation; Importin subunit beta-1 (Homo sapiens), Q14974; Rango CFP/YFP FRET sensor + importin beta, 45 min; Potency, µM (top dose mostly 92.2 µM), without a hit: top-dose inhibition of complex formation; actives 0.031% (n = 340,000); AID 540263, 2011; active = rising FRET ratio curve, often small or poorly fitted; inconclusive = mostly compound fluorescence or quenching in the first reads; inactive = flat curves in all reads;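 further: potency means the concentration at half of the fitted maximal effect; 0% = DMSO wells and 100% = buffer wells lacking importin beta; nearly all actives have a fitted effect of over 15% in size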
Target sequence (Q14974 whole entry, looked up): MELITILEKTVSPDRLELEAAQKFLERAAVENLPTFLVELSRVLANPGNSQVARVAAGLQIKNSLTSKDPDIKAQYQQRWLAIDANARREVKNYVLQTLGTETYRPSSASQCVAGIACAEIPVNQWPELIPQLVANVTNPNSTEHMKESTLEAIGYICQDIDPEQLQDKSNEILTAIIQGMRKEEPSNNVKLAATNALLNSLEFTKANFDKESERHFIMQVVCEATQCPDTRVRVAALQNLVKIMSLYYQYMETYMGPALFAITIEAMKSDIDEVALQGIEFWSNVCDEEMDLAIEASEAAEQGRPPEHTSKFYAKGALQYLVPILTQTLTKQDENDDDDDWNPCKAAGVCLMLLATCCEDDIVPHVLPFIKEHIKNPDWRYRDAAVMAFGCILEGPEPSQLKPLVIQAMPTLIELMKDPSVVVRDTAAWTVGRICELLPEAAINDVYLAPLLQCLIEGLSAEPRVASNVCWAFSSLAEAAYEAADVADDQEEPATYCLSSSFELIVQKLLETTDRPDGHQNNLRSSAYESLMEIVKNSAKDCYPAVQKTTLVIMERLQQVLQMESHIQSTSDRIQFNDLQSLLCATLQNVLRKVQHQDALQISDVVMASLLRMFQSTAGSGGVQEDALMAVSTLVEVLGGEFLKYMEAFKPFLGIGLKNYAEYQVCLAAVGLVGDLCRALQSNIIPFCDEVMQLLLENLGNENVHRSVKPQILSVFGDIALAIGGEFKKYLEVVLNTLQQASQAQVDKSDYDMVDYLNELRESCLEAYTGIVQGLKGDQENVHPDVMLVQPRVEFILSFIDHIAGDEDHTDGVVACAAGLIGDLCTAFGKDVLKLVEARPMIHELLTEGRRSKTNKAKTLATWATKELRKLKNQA
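Inhibition scored from the CFP 486 nm/YFP 530 nm FRET ratio 45 min after adding 0.125 microM importin beta to 50 nM Rango biosensor preincubated 5 min with compound (room temperature, PBS with DTT, Tween-20, BSA). No-importin wells as positive control.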
Rango release inh: qHTS Assay for Inhibitors of RanGTP induced Rango (Ran-regulated importin-beta cargo) - Importin beta complex dissociation; AID 540253, 2011; Potency, µM (highest dose often 46.1 µM), without a hit: top-dose activity change, negative = inhibition; Biochemical FRET Rango-importin beta, RanGTP-induced dissociation; Snurportin-1 (Homo sapiens) + GTP-binding nuclear protein Ran (Homo sapiens) + Importin …; actives 0.071% (n = 340,000); active means falling FRET ratio curve, often poorly fitted, with flat reads before Ran was added; inconclusive means other falling curves, or compound fluorescence or quenching; inactive means flat or rising ratio curve;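 further: potency means the concentration at half of the fitted maximal effect; % of control where 0% means no effect; nearly all actives have a fitted effect of over 45% in size; -100% = wells without RanGTP and RCC1; the record marks most hits as doubtful in a second field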
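Rango/importin beta premix (0.1/0.25 uM final), PBS + 1 mM DTT + 0.02% Tween-20 + 0.1% BSA; cpd 5 min RT; FRET pre-read; + RanGTP-RCC1 (0.6 uM Ran, 2 mM GTP, 0.2 uM RCC1); 45 min RT; FRET post-read, ex 430, em 486/530 nm.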
GLA inh pH 4.5: qHTS Assay for Inhibitors of Human alpha-Galactosidase at pH 4.5; Alpha-galactosidase A (Homo sapiens), P06280; purified enzyme, 4-MU-alpha-Gal fluorescence, pH 4.5; activity change, negative = inhibition, % at 105 µM; 230,000 tested, under 10 active; AID 1467, 2008; inconclusive = small, poorly fitted or top-dose-only inhibition, or a rising curve; inactive = flat fitted curve, though single readings scatter; no compound was filed as active;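 further: 0% = full activity with enzyme and -100% = basal without enzyme; dose as in the result columns while the protocol names 77 µM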
The depositor's hits bear a star; ? = inconclusive; / = no result given; & = joins results of further samples. Some of the compounds tested; rates above refer to the full screens.

SMILES	miR-21 reporter	Rango-impB inh	Rango release inh	GLA inh pH 4.5
CCCN(Cc1cc2cc(C)ccc2[nH]c1=O)C(=O)c1ccccn1	1%	-1.9%	23%	5
CCCn1c(NC(=S)Nc2ccccc2)nc2ccccc21	-10%	-0.7%	-22%	-12
O=c1c2ccccc2nnn1CSc1nnc(-c2cccc(S(=O)(=O)N3CCCCC3)c2)o1	6%	?	7%	-6
CC(C)N(C(=O)N1CCC(c2nc(-c3ccncc3)no2)CC1)C(C)C	13%	-0.9%	-11%	0
CCc1ccc(NC(=O)CC2NCCNC2=O)cc1 (centres undefined)	-17%	-1.3%	14%	1
CC(NC(=O)CCc1c[nH]c2ccccc12)c1ccccc1 (centres undefined)	3%	0.7%	-7%	/
Cc1ccnc(NC(=O)CCC(=O)N(CC(=O)NCc2ccc(F)cc2)c2cccc(F)c2)c1	-6%	-0.7%	-6%	/
CN(CC(=O)Nc1ccc(Cl)cc1)C(=O)CNC(=O)c1ccc2ccccc2c1	-32%	-0.2%	-12%	/
N#CCCn1nc(Cc2cccc3ccccc23)c(C#N)c1N	/	-4.0%	9%	/
CCOc1cc(OCC)cc(C(=O)NC(=S)Nc2cccc(C(F)(F)F)c2)c1	-1%	-0.2%	-3%	-11
O=C(CN1CCN(c2ccccc2)CC1)Nc1scc2c1c(=O)oc1ccccc12	-10%	-0.2%	-5%	3
COc1ccc(S(=O)(=O)N(C)C[C@H]2Oc3ccc(NC(=O)c4ccncc4)cc3C(=O)N([C@H](C)CO)C[C@@H]2C)cc1	/	-2.0%	-2%	/
COc1ccc(CN(C)CC(O)COC(c2ccc(OC)cc2)c2ccc(OC)cc2)cc1 (centres undefined)	0%	-1.1%	-10%	/
NC1=NN=C(c2ccc3c(c2)OCCO3)CS1	16%	-1.8%	5%	-2
COc1ccc(CNC(=O)C2CCCN(c3nccc(C)n3)C2)cc1 (centres undefined)	-7%	0.4%	-5%	-4
CC(=O)Nc1ccc(S(=O)(=O)Nc2nc3ccccc3nc2Nc2cccc(S(N)(=O)=O)c2)cc1	0%	1.9%	-6%	-6
CCn1c(C)nc2cc(C(=O)NNC(=O)CN(C)S(=O)(=O)c3ccc(NC(C)=O)cc3)ccc21	/	-0.9%	8%	/
CC1CC(C)(C)NC(=S)N1CC(=O)NCc1ccccc1Cl (centres undefined)	-6%	?	-15%	-3
CC1Cc2ccccc2N1C(=O)CSc1nnc2c(n1)[nH]c1ccc(F)cc12 (centres undefined)	-2%	-0.5%	-9%	-12
COc1ccc(S(=O)(=O)Cc2ccc(C(=O)NCc3ccccc3)o2)cc1	2%	-2.8%	?	/
COc1ccccc1C1C2=C(CC(C)(C)CC2=O)Nc2nnnn21 (centres undefined)	-2%	0.0%	-5%	1
CN(C)S(=O)(=O)c1ccc(N2CCCC2)c(C(=O)NC2CCCCC2)c1	/	0.4%	22%	/
CN(C)CCCNc1cc(O)c2ncccc2c1	/	-1.9%	-12%	/
COc1ccc(OCc2nnc(SCC(=O)NNC(=O)c3ccc(C)cc3)n2C)cc1	-6%	-0.1%	-13%	1
CC(C)Oc1ccc(Cn2c(-c3ccco3)n[nH]c2=S)cc1	-41%	-0.9%	1%	-13
CCNC(=S)Nc1ccc(OCc2nc3ccccc3s2)cc1	-35%	2.5%	14%	/
CCN1C(=O)/C(=C/c2cnn(C)c2C)SC1=S	-6%	/	/	1
CC(=O)OC(C(=O)N1CCN(c2ccc(F)cc2)CC1)c1ccccc1 (centres undefined)	-8%	?	19%	0
CSc1nnc(NC(=O)c2cc(=O)c3cc(C)cc(C)c3o2)s1	-7%	2.5%	-2%	-6
N#Cc1ccc(C23CC4(C2)[C@H](CN(Cc2cccnc2)[C@@H]4c2ccccc2)C3c2ccccc2)cc1 (some centres undefined)	13%	3.2%	-13%	-6&-8
COc1ccc2c(c1)CC(C)C/C2=N\NC(=O)c1ccco1 (centres undefined)	-51%	0.3%	19%	2
COc1cc(-c2c(C#N)c(N)nc3c2c(C)nn3-c2ccc(C)c(C)c2)cc(OC)c1OC	6%	?	-13%	-15
NCCCC[C@@H]1NC(=O)c2cc([N+](=O)[O-])cc(I)c2SC[C@@H](C(=O)NCC(N)=O)NC(=O)CNC1=O	-1%	-2.9%	1%	1
CCc1ccc(C(=O)NNc2ccc(Cl)cc2)cc1	-17%	-0.3%	6%	-2
CN1/C(=C/C=N/n2cnnc2)C(C)(C)c2ccccc21	-6%	-2.1%	-3%	-10
Nc1ccc2nc(CN3CCOCC3)[nH]c2c1	0%	-0.4%	-7%	4
COc1ccc(C(=O)NCC(c2ccco2)N2CCc3ccccc32)c(OC)c1 (centres undefined)	/	12%	16%	/
CNc1nc(C)nc(-c2ccccc2O)n1	-26%	0.8%	-1%	0
CCOC(=O)C1=C(Cn2cnc3ccccc32)NC(=O)NC1c1cc(C)ccc1C (centres undefined)	?	2.9%	-1%	-8
Cc1cc(NC(=O)c2ccc(COc3ccccc3Cl)o2)no1	-2%	-0.6%	10%	8
CC(=O)N1c2ccc(S(=O)(=O)NCCC(=O)NCCc3ccc(C)cc3)cc2CC1C (centres undefined)	16%	-3.3%	15%	/
CCOC(=O)N1CCN(C(=O)/C(=C/c2cccs2)NC(=O)c2ccc(OC)c(OC)c2)CC1	8%	4.4%	-1%	/
CCSc1nc2c(c(=O)n(C)c(=O)n2C)n1Cc1ccc(Cl)cc1	/	3.5%	14%	/
COc1ccc(CN(Cc2ccccn2)S(=O)(=O)c2ccc(-n3cnnn3)c(OC)c2)cc1	-4%	3.6%	2%	3
CCOC(=O)c1ccc(NC(=O)Cc2cccs2)cc1	-40%	0.6%	-13%	/
C=CC[n+]1c(-c2ccc(OC)cc2)csc1NNC(=O)Nc1ccccc1	6%	?	-23%	1
COc1ccc(OC)c(-c2csc(NC(=O)CSc3ccc(Br)cc3)n2)c1	1%	-1.6%	31%	4
COc1cc(NC(=O)c2ccc(Cl)cc2)c(OC)cc1NC(=O)CN1CCOCC1	-8%	-2.1%	-13%	7
Cc1oc2cc([N+](=O)[O-])c(O)c([N+](=O)[O-])c2c1C(=O)c1ccc(Br)cc1	-1%	0.3%	2%	0
CCc1[nH]c(=O)c(C#N)c2c1CCCC2	-10%	0.5%	-4%	6
Carrying on.
SMILES	miR-21 reporter	Rango-impB inh	Rango release inh	GLA inh pH 4.5
CC1CC(=Cc2ccc(N)cc2)C(=O)O1 (centres undefined)	/	-1.3%	-15%	/
O=C(CSc1ncnc2c1oc1ccccc12)Nc1cccc(Cl)c1	-13%	-7.5%	-22%	-2
CCCCNC(=O)C(C#N)c1nc2ccccc2nc1N1CCN(c2ccccc2F)CC1 (centres undefined)	-21%	?	?	/
N#Cc1ccc(CSc2nnc(-c3cccc(S(=O)(=O)N4CCCCC4)c3)o2)cc1	-1%	0.9%	?	-3
CC(C)(C)c1ccc(C(=O)N/C(=C\c2ccco2)C(=O)O)cc1	-11%	-1.2%	0%	4
O=C(Nc1ccc2c(c1)CCC2)c1cnn2c1NC(c1ccco1)CC2C(F)(F)F (centres undefined)	-51%	-1.2%	-8%	-3
CCC(C(=O)Nc1ccc(C(=O)Nc2ccccc2C(=O)O)cc1)c1ccccc1 (centres undefined)	6%	2.5%	10%	/
CC1CCC(NC(=O)c2cc3c(s2)CS(=O)(=O)C3)CC1 (centres undefined)	-23%	?	8%	6
CCN(CC)c1ccc(NC(=O)CCCCC(=O)Nc2ccc(N(CC)CC)cc2)cc1	/	-0.5%	23%	/
CC1CCc2c(nc3ncnn3c2NCCc2ccccc2F)C1 (centres undefined)	-7%	?	-6%	-5

An excerpt from above in order of molecular weight, largest number first:
SMILES	miR-21 reporter	Rango-impB inh	Rango release inh	GLA inh pH 4.5
CCCCNC(=O)C(C#N)c1nc2ccccc2nc1N1CCN(c2ccccc2F)CC1 (centres undefined)	-21%	?	?	/
CCN(CC)c1ccc(NC(=O)CCCCC(=O)Nc2ccc(N(CC)CC)cc2)cc1	/	-0.5%	23%	/
O=C(Nc1ccc2c(c1)CCC2)c1cnn2c1NC(c1ccco1)CC2C(F)(F)F (centres undefined)	-51%	-1.2%	-8%	-3
O=C(CSc1ncnc2c1oc1ccccc12)Nc1cccc(Cl)c1	-13%	-7.5%	-22%	-2
CC1CCc2c(nc3ncnn3c2NCCc2ccccc2F)C1 (centres undefined)	-7%	?	-6%	-5
CC1CCC(NC(=O)c2cc3c(s2)CS(=O)(=O)C3)CC1 (centres undefined)	-23%	?	8%	6
CC1CC(=Cc2ccc(N)cc2)C(=O)O1 (centres undefined)	/	-1.3%	-15%	/

Remaining list, next part.
SMILES	miR-21 reporter	Rango-impB inh	Rango release inh	GLA inh pH 4.5
CN(C)S(=O)(=O)c1ccc(N2CCCC2)c(C(=O)NCc2cccc(C(F)(F)F)c2)c1	-1%	-0.7%	2%	5
O=C(C1CCCCC1)N1CCN(c2nc(-c3ccc(F)cc3)cs2)CC1	5%	0.2%	24%	-2
Cn1cc(-c2ccccc2C(=O)O)c(=O)c2ccccc21	-1%	0.2%	23%	/
CCN(CC)c1nc(N)nc(N(c2ccccc2)c2ccccc2)n1	5%	1.5%	1%	-10
Cc1cc(C)nc(Sc2ccc3nnc(C(F)(F)C(F)(F)C(F)(F)F)n3n2)n1	-1%	-2.0%	13%	-13
Cc1ccc(C2CC(=O)Oc3cc(C)c(Br)c(C)c32)cc1 (centres undefined)	/	-0.5%	-26%	-5
Cc1cc(O)c(-c2cc(C(=O)NCCc3ccc(S(N)(=O)=O)cc3)[nH]n2)cc1C	-4%	-1.0%	0%	-2
CCCc1cc(=O)[nH]c(SCC(=O)Nc2cccc(S(=O)(=O)N3CCCCC3)c2)n1	/	0.1%	-9%	/
Cc1ccc(N2CCN(C(=O)NC3CCCCC3)CC2C)cc1 (centres undefined)	-19%	0.0%	1%	-3
COc1cc(C(=O)NCC(=O)N/N=C\C(C)=C/c2ccccc2)cc(OC)c1OC	12%	3.3%	10%	/
CC(=O)Nc1ccc(-c2nc3ccc(NC(C)=O)cc3o2)cc1	-75%	0.3%	1%	/
Cn1nccc1C(=O)NC(=S)Nc1cc(Cl)cc(Cl)c1	1%	1.3%	5%	/
CN(C)CCCN1C(=O)C(=O)/C(=C(/O)c2ccc3c(c2)OCCO3)C1c1ccco1 (centres undefined)	-13%	/	/	4
O=C(O)CCn1c(O)c(C=C2N=c3ccccc3=N2)sc1=S	2%	-1.2%	-7%	-4
CCOC(=O)CNC(=S)SC	0%	-4.9%	-2%	-16
O=C(N/N=C/c1cccc(O)c1)c1cc(-c2ccc3c(c2)OCO3)n[nH]1	-12%	-1.4%	-11%	5
OCCc1c[nH]c2ccccc12	1%	0.8%	7%	/
CCc1ccc(NC(=S)N2CCN(S(=O)(=O)c3ccccc3)CC2)cc1	2%	8.6%	-18%	/
Cc1ccc(C(=O)NCCN2CCN(C(=O)c3ccc(C)c(C)c3)CC2)cc1C	1%	-0.8%	1%	/
O=C(c1ccc(COc2c(F)c(F)cc(F)c2F)o1)N1CCN(c2ccccc2)CC1	-6%	4.2%	-7%	1
CCCCn1c(N)c(N(CCC(C)C)C(=O)COC(=O)c2sccc2C)c(=O)[nH]c1=O	/	0.7%	-15%	/
Oc1ccc(C[C@@H]2CNCCN2CCc2cccc(F)c2)cc1	/	11%	-10%	/
COc1cc(C2SCC(=O)N2Cc2ccccc2)ccc1O (centres undefined)	-6%	2.2%	17%	/
CCOC(=O)c1c(-c2ccc(OC)cc2)oc2ccc(O)cc12	-8%	1.3%	-11%	/
CCc1c(C)nc2[nH]nc(-c3ccccc3)n2c1=O	-30%	0.3%	6%	1
O=C(COC(=O)C12CC3CC(CC(O)(C3)C1)C2)NC(=O)NCc1ccco1	-3%	-0.6%	12%	-5
